From PubChem
CBX7 AlphaScr: CBX7 chromodomain binding inhibitors, primary screen, biochemical, AlphaScreen; Chromobox protein homolog 7 (Homo sapiens), O95931; AlphaScreen His6-CBX7 / biotin-H3K27me3 peptide binding; hits give low values; normalised signal (fraction of DMSO) (test concentration not listed); actives 1.1% (n = 66,000); AID 1224903, 2016; in the data active = normalised signal below about 0.5;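 also: 100 nL library stock added to about 20 µL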
Target sequence (O95931 whole entry, looked up): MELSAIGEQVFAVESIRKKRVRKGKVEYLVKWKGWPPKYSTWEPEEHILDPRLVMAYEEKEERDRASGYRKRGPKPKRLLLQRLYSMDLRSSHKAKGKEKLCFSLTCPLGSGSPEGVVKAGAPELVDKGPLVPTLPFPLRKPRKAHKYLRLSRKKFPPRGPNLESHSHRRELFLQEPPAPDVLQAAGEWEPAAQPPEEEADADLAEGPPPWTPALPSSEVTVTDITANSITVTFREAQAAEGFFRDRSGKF
CBX7 AlphaScr z-score: further read-out of CBX7 AlphaScr, marked with its call; z-score; measured here: z-score of CBX7 signal; some inactives read as strong as hits; reference of the scale not given here;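 same signal on another scale; lower means less binding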
* = called active by the depositor; & = joins results of further samples.

SMILES	CBX7 AlphaScr	CBX7 AlphaScr z-score
CCOC(=O)Nc1ccc2c(c1)N(C(=O)CCN1CCCCC1)c1ccccc1CC2	1.1	1.6
CSc1ccc(CN2C(=O)c3ccccc3Sc3ccc(C(=O)NC4CCCC4)cc32)cc1	1	0.27
Cc1cccc(-c2noc(COc3ccccc3)n2)c1	1.3	15
CC(=O)Nc1ccc(NC(=O)Cn2cnc3c(nnn3Cc3ccc(C)cc3)c2=O)cc1	0.96	-0.68
COCCCNC(=O)C(=O)Nc1cc(C)ccc1OC	1	0.39
CCCCN(C(=O)c1ccc(Cl)cc1)C1CC2CCC(C1)N2C (configuration not stated)	0.99	-0.24
Cc1ccc(CN2C(=O)CCC2C(=O)NCCCN2CCCCC2C)cc1 (configuration not stated)	1	0.091
Cc1cccc(-n2ccnc2SCC(=O)Nc2ccc3c(c2)OCO3)c1	0.79	-0.21
COc1cc(OC)c(NC(=O)c2nccnc2C(=O)O)cc1Cl	0.75	-3.2
CCOC(=O)N1CCN(c2cc(=O)n(-c3ccc(Cl)cc3)c(=O)[nH]2)CC1	0.96	-0.38
CCN(CC)c1cc(C)c2cc(NC(=O)Cc3ccccc3Br)ccc2n1	1.1	1.7
Cc1sc2ncnc(Nc3ccc(N4CCN(C)CC4)cc3)c2c1C	0.88	-1.5
COc1ccc(-c2nn(C)c3sc(C(=O)Nc4ccc(Br)cc4C)cc23)cc1OC	1.1	3.1
CC1CCC(NC(=O)C2CCCN(C(=O)c3cc4sccc4n3C)C2)CC1 (configuration not stated)	0.89	-3
Cc1ccc2cc(CCNC(=O)c3cccc(Cl)c3)c(=O)[nH]c2c1C	1.2	1.1
CCOc1cc2c(cc1OCC)C(c1ccc(OCC(=O)O)c(OC)c1)NCC2 (configuration not stated)	1.2	3.5
O=c1[nH]c2ccc(S(=O)(=O)N3CCCCC3)cc2[nH]1	1	0.032
CC(C)c1nc(N2CCCCC2)c(C#N)c2c1COC(C)(C)C2	1.2	6.8
O=C(NCc1ccccc1Cl)c1cc2c(s1)CS(=O)(=O)C2	0.73	-1.1
CCOc1ccccc1Nc1nc(-c2cccnc2)cs1	0.96	-0.52
Cc1nc2c(C(=O)NC3CCCC(C)C3C)cnn2c(C)c1Cc1ccccc1Cl (configuration not stated)	0.82	-1.7
Cc1ccn2c(=O)c(C(=O)Nc3ccc(OC(F)(F)F)cc3)cnc2c1	1.1	1.4
CNC(=O)c1cc(NC(=O)CCn2nc(-c3ccc(Cl)cc3)c3ccccc3c2=O)ccc1OC	0.96	-0.9
CCOc1ccc2nc(N3CCC(C(=O)NCc4cccc(F)c4)CC3)sc2c1	1	0.6
COCCCNC(=O)c1ccc2c(c1)N(Cc1ccc(F)cc1)C(=O)CS2	0.95	-0.53
Next section
SMILES	CBX7 AlphaScr	CBX7 AlphaScr z-score
COC(=O)c1ccc(-c2n[nH]c(=O)c3ccccc23)cc1	0.98	-0.22
COc1ccccc1CNC(=O)CCc1c(C)nc2c(-c3ccc(F)cc3)c(C)nn2c1C	1.1	1.3
COc1ccc(CNC(=O)Cn2c3c(c(-c4ccccc4Cl)cc2=O)CCC3)cc1	0.86	-1.5
COc1ccc(CN2CCN(Cc3ccccn3)CC2)cc1OC	0.9	-1.1
Cc1ccccc1Cn1c(CCNC(=O)c2ccccc2)nc2ccccc21	0.92	-1.1
CC(=O)Nc1ccc(NC(=O)c2c(C)nn(-c3ccccc3)c2Cl)cc1	1.2	1.3
CCn1c(SCCOc2ccc(C)cc2)nc2ccccc21	1.4	3.6
COc1ccc(C2CC(=O)C3=C(C2)Nc2ccccc2NC3c2ccccn2)cc1 (configuration not stated)	0.98&1.2	-0.38&1.7
COc1ccc(-c2cc(C(=O)N3CCN(c4ccccc4OC)CC3)c3ccccc3n2)cc1	0.78	-1.5
COc1ccc(-c2csc(Nc3cc(C)ccn3)n2)cc1C	0.82	-2.2
CC(C)NC(=O)c1ccc2c(c1)N(Cc1ccc(F)cc1)C(=O)c1ccccc1S2=O (configuration not stated)	0.94	-1.7
CC1CC(C)CN(C(=O)c2cnn(-c3ccccc3)c2-n2cccc2)C1 (configuration not stated)	1.1	2.7
COc1ccc(S(=O)(=O)NCCc2c(C)[nH]c3ccc(OC(F)(F)F)cc23)cc1	0.89	-5.5
CCc1cccc(C)c1Nc1c(-c2ccc(N3CCOCC3)cc2)nc2cnccn12	1.1	4.9
Cc1ccc(C)c(CSc2nc3ccncc3n2CC(=O)Nc2ccc(N(C)C)cc2)c1	0.75	-12
Oc1ccc(-c2cnc(-c3ccc(O)cc3)nc2)cc1	0.94	-1.2
CCOc1ccc2nc(NC(=O)c3ccccc3O)sc2c1	0.99	-0.12
CCC1C(=O)N=C(SCC(=O)Nc2cc(C)on2)NC1=O (configuration not stated)	0.94	-1.6
NS(=O)(=O)c1ccc(NC(=O)c2cc(-c3ccc(Br)s3)nc3ccccc23)cc1	0.96	-0.33
NC(=O)CSc1oc(-c2ccccc2)nc1S(=O)(=O)c1ccc(Cl)cc1	0.99	-0.045
CCC(=O)N1CCc2cc(S(=O)(=O)NCCC3=CCCCC3)ccc21	1.3	2.9
Cc1ccc2nc(SCc3cn4cccnc4n3)[nH]c2c1	0.92	-0.91
Cc1ccc(-c2nnc(SCC(=O)N3CCC(C)CC3)o2)cc1	0.94	-0.13
COc1ccc(C2C(C(C)=O)=C(C)Nc3ncnn32)cc1OC (configuration not stated)	0.92	-1.5
CCCCCCCCCCOc1ccc(NC(=O)N2CCCC(C)(C)C2)cc1	1	-0.025

Ordered by count of non-hydrogen atoms (ascending): part of the list above
SMILES	CBX7 AlphaScr	CBX7 AlphaScr z-score
Oc1ccc(-c2cnc(-c3ccc(O)cc3)nc2)cc1	0.94	-1.2
COc1ccc(CN2CCN(Cc3ccccn3)CC2)cc1OC	0.9	-1.1
COc1ccc(S(=O)(=O)NCCc2c(C)[nH]c3ccc(OC(F)(F)F)cc23)cc1	0.89	-5.5
COc1ccccc1CNC(=O)CCc1c(C)nc2c(-c3ccc(F)cc3)c(C)nn2c1C	1.1	1.3

(cont.)
SMILES	CBX7 AlphaScr	CBX7 AlphaScr z-score
COc1ccccc1CC(=O)Nc1ccc2nc(N3CCCCC3)cc(C)c2c1	0.9	-1.9
O=C(CN1C(=O)CSc2ccccc21)NCc1ccc(F)cc1Cl	0.88	-2.1
COc1ccc2c(c1)c(=O)c(S(=O)(=O)c1ccc(C)cc1)cn2Cc1ccccc1F	0.93	-2.6
Cc1cc(N2CC(C)OC(C)C2)n2c(nc3ccccc32)c1C#N (configuration not stated)	0.88	-1.8
O=C(CN1C(=O)c2ccccc2S1(=O)=O)N1CCN(C(c2ccccc2)c2ccccc2)CC1	0.88	-3.3
COc1ccc(CCCc2nnc(SCC(=O)Nc3ccc(C)cc3)o2)cc1	1	0.16
CC1CCN(CCNS(=O)(=O)c2cc(Br)cc3c2N(C(=O)C2CC2)CC3)CC1	1	1.1
CC(C)Cn1c(=N)n(CCOc2ccc(Br)cc2)c2ccccc21	0.98	-0.37
CCn1c(CCCNC(=O)Cc2ccccc2)nc2ccccc21	1.1	0.97
CCN(c1ccccc1)S(=O)(=O)c1ccc2[nH]cc(C(=O)NCc3ccc(F)cc3)c(=O)c2c1	1	0.28
CCCOc1ccc(NC(=O)CC2SCCNC2=O)cc1 (configuration not stated)	0.98	-0.63
CCN1CCN(C(=O)C2CC(c3ccc(F)cc3)=NO2)CC1 (configuration not stated)	0.98	-0.66
CC(C)CN(CC(C)C)S(=O)(=O)c1ccc(C(=O)Nc2nnc(C3CC3)o2)cc1	0.0062*	-2.8*
Cc1ccc(OCC(O)CN2CCN(CCO)CC2)c(C)c1 (configuration not stated)	1	0.74
COc1ccc(-c2noc(-c3ccc(F)cc3)n2)cc1OC	1	1.2
CCCCCCNC(=O)c1c[nH]c2ccc(S(=O)(=O)N3CC(C)CC(C)C3)cc2c1=O (configuration not stated)	1	0.3
CCc1cccc(NC(=O)CSc2nc3nc(C)c(Cc4ccc(C)cc4)c(C)n3n2)c1	0.84	-3.2
O=C(COc1ccccc1Cl)Nc1ccc2oc(-c3ccncc3)nc2c1	1.1	2
COC(=O)c1c[nH]n2c(NC3CCCCCC3)c(-c3ccc(F)cc3)nc12	0.45*	-11*
COc1ccc(Nc2c(-c3ccc(C)cc3)nc3cnccn23)cc1OC	0.93	-2.7
CCOC(=O)c1cc(-c2ccccc2)n(CCC(=O)Nc2ccc(Cl)cc2)c1C	1.1	1.3
CCOC(=O)c1cnc2c(ccc3ccccc32)c1Nc1ccc2c(c1)OCCO2	0.81	-1.2
CCc1ccc2c(c1)c(=O)c(S(=O)(=O)c1ccc(C)cc1)cn2CC(=O)Nc1ccccc1OC	0.98	-0.3
Brc1ccc(-c2nc(-c3ccccc3)c(-c3ccc(Oc4ccccc4)cc3)[nH]2)cc1	0.76	-0.96
COc1ccc(C(=O)Nc2cc(-c3nc4ccccc4s3)ccc2C)cc1	1.1	1.3
(listing goes on)
SMILES	CBX7 AlphaScr	CBX7 AlphaScr z-score
Cc1nc(Oc2ccc(Br)cc2)c2c3c(sc2n1)CCCC3	1.1	3.1
CCOc1ccc(CCNC(=O)Cn2nnc(-c3ccccc3F)n2)cc1OCC	1.1	1.2
Cc1cccc(N2CCN(C(=O)Cn3nc(Cc4ccncc4)c4ccccc4c3=O)CC2)c1C	0.93	-1.7
CN(C)CCCNC(=O)c1ccc2c(c1)N(Cc1ccccc1)C(=O)CS2	1	0.35
O=C(CC1(O)C(=O)Nc2ccc(Cl)cc21)c1ccc(-c2ccccc2)cc1 (configuration not stated)	0.83	-1.6
COc1cc2c(C(=O)N3CCC4(CC3)OCCO4)cn(C)c(=O)c2cc1OC	1.1	2.8
Cc1cc2nc(-c3ccc(NC(=O)c4cc5ccccc5o4)cc3)oc2cc1C	1.1	1.9
CC(=O)Oc1ccc(NC(=O)CC2Nc3ccccc3NC2=O)cc1 (configuration not stated)	0.92	-0.34
C=CCN1C(=O)N(c2ccccc2)C(=O)C1CC(=O)Nc1ccc(OCC)cc1 (configuration not stated)	1.1	2.9
CCN(CC)S(=O)(=O)c1ccc2c(c1)N(CC(=O)N1CC(C)CC(C)C1)C(=O)CO2 (configuration not stated)	1.1	1.7
Clc1ccccc1-c1nnc2sc(COc3ccccc3)nn12	1	1.5
CCOC(=O)N1CCC(Nc2c(NC3CCCCCC3)c(=O)c2=O)CC1	1.1	2
Cc1ccc(Cl)cc1N1CCN(S(=O)(=O)c2ccc3c(c2)CCN3C(=O)C2CC2)CC1	0.99	-0.36
CCN(C(=O)c1oc2ccc(S(=O)(=O)N3CCOCC3)cc2c1C)c1ccccc1	0.89	-2.5
O=C(NCCCN1CCOCC1)c1ccc2c(c1)N(Cc1ccccc1)CCS2	0.88	-0.16
CCN(CCCNC(=O)CCCCn1c(=O)[nH]c2ccccc2c1=O)c1ccccc1	0.9	-0.28
Cc1ccc2c(c1)c1c(n2CC(O)CN2CCN(Cc3ccccc3)CC2)CCCC1 (configuration not stated)	0.6	-4.3
COc1ccc(-c2cc(C(=O)Nc3cnn(Cc4ccccc4C)c3)no2)cc1	1	0.49
COc1ccc(OC)c(NC(=O)C2CCN(S(=O)(=O)c3ccccc3)CC2)c1	0.86	-2.6
Cc1oc(-c2ccc(Cl)cc2)nc1C(=O)NC1CCCCCC1	1	0.14
CC(=O)N1CCc2cc(S(=O)(=O)NC(Cc3ccccc3)C(=O)NCc3ccc(F)cc3)ccc21 (configuration not stated)	1	1.9
Cc1nc2cc(-c3ccc(Cl)cc3)nn2c(C)c1CCC(=O)NC(C)C	1.2	4.2
CCC(=O)N1CCc2cc(S(=O)(=O)NC(C(=O)Nc3ccc(C)cc3)C(C)C)ccc21 (configuration not stated)	0.93	-1.3
Cc1ccc(NC2c3ncccc3C(=O)N2C2CCCCC2)cc1C (configuration not stated)	0.73	-3.5
CN(C)c1ccc(-c2nc3cnccn3c2NC2CCCCC2)cc1	0.97	-0.34

Reprinted at random: four compounds from above, in no set order.
SMILES	CBX7 AlphaScr	CBX7 AlphaScr z-score
CCOc1cc2c(cc1OCC)C(c1ccc(OCC(=O)O)c(OC)c1)NCC2 (configuration not stated)	1.2	3.5
COc1ccc(-c2csc(Nc3cc(C)ccn3)n2)cc1C	0.82	-2.2
CC(C)CN(CC(C)C)S(=O)(=O)c1ccc(C(=O)Nc2nnc(C3CC3)o2)cc1	0.0062*	-2.8*
CCn1c(CCCNC(=O)Cc2ccccc2)nc2ccccc21	1.1	0.97

Next section.
SMILES	CBX7 AlphaScr	CBX7 AlphaScr z-score
COCCn1cc(C(=O)NCc2ccc(F)cc2)c2c3ccccc3n(C)c2c1=O	1	0.35
CCOc1ccc2nc(NC(=O)c3ccc(S(=O)(=O)N4CCCCC4)cc3)sc2c1	1.1	1
Cc1cc(C)c(OCC(=O)Nc2ncc(Cl)cc2Cl)c(C)c1	1	1.4
CC1CCCCN1CCCNC(=O)c1cc(=O)[nH]c2ccc(S(=O)(=O)N3CCCCC3C)cc12 (configuration not stated)	0.99	-0.33
O=C(Nc1nnc(-c2ccc3c(c2)OCO3)s1)c1ccc(Br)cc1	1	-0.082
Cc1csc(NC(=O)C(CC(C)C)NS(=O)(=O)c2ccc3nc(C)sc3c2)n1 (configuration not stated)	1	0.051
COc1ccc(C2CC(=O)N(CC(=O)Nc3ccccc3)c3ccccc3S2)cc1OC (configuration not stated)	1	0.19
O=C(Nc1ccc2oc(-c3ccncc3)nc2c1)c1ccccc1Br	1	0.0099
O=C(Nc1ccc(Br)cc1)C1CCCN1S(=O)(=O)c1cccc2cccnc12 (configuration not stated)	0.85	-5.2

3 entries already listed, ordered by the value under CBX7 AlphaScr z-score, rising.
SMILES	CBX7 AlphaScr z-score
O=C(Nc1ccc2oc(-c3ccncc3)nc2c1)c1ccccc1Br	0.0099
Cc1csc(NC(=O)C(CC(C)C)NS(=O)(=O)c2ccc3nc(C)sc3c2)n1 (configuration not stated)	0.051
Cc1cc(C)c(OCC(=O)Nc2ncc(Cl)cc2Cl)c(C)c1	1.4

Only part of the results is shown, so the mix of outcomes need not match the whole.
